Compound activity as filed in PubChem.
T cruzi repl: blocks replication of Trypanosoma cruzi. T. cruzi beta-gal in NIH3T3, luminescence, 90 h. inhibition, % (concentration not given with the values). 1.4% of 300,000 active. AID 1885;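 active means mean inhibition across valid replicates above about 55%, limit read from the data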;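 further: signal also drops with host cell toxicity which is not excluded here; 0% = plate median of DMSO wells and 100% = zero luminescence signal; higher percent means less beta-gal luminescence so fewer parasites; stock transfer was 50 nL into about 50 µL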
Beta cell apopt: beta cell apoptosis inhibition | INS-1E cytokine-induced death, ATP luminescence, 48 h; percent of positive-control rescue, neutral wells zero | protection from apoptosis, % (no concentration beside the values) | 0.8% of 300,000 active;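 active means all replicates at 75% or more, or half of them and the mean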;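 further: 0% = cytokine-treated negative control wells and 100% = positive control rescue; higher means more ATP so stronger rescue from cytokine killing; wells of about 40 µL received 100 nL stock; the first replicate is given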
RanGTP-Imp inh: inhibitors of RanGTP-importin-beta interaction, primary screen, biochemical, FRET, CFP-Ran, YFP-importin-beta, homogeneous; inhibition, % (concentration not given with the values); AID 2216; cell-free CFP-Ran/YFP-importin-beta FRET ratio; 1.1% of 300,000 active;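 active means most replicates above 15%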;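 further: 0% = DMSO wells and 100% = Ran loaded with GDP instead of GTP; wells of about 40 µL received 100 nL stock; the first replicate is given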
Bfl-1 A1 inh: inhibitors of the anti-apoptotic protein A1, read as caspase activation | caspase activation, % (no concentration beside the values) | AID 2462 | 0.066% of 330,000 active | MEF A1-2A-BIM cells, Caspase-Glo 3/7 luminescence, 3 h; percent of clofoctol response, vehicle zero;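 active means over half of replicate activation scores above 10%, or exactly half above 10 with the replicate mean above 10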;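 further: wells of about 30 µL received 50 nL stock; many hits fall short of the cut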
Calb FLC: C. albicans growth modulation with fluconazole. C. albicans CaCi-2 (fluconazole-resistant clinical isolate) + fluconazole, Alamar Blue growth, 48 h. growth inhibition, % (concentration not given with the values). 0.57% of 300,000 active. AID 1979;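 active means most replicates above 75%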;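 further: all wells also contain fluconazole at 8 µg/ml as a sub-toxic cotreatment; 0% = median of DMSO wells and 100% = median of geldanamycin control wells; wells of about 8 µL received 7.5 nL stock; the first replicate is given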
LANA-H2A inh: blocks KSHV LANA binding to histone H2A/H2B; inhibition, % (no concentration beside the values); cell-free LANA-H2A/H2B peptide, fluorescence polarization; 0.6% of 320,000 active; Q9QR71; in the data active means inhibition mostly above about 10%, no sharp cut-off; inactive means mostly below about 6.7%;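 further: stock transfer was 7.5 nL into about 10 µL; 0% = median of vehicle wells and 100% = median of positive control wells; one replicate is shown; the record names a cut of 25% in any replicate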
Target sequence (Q9QR71 whole entry, looked up): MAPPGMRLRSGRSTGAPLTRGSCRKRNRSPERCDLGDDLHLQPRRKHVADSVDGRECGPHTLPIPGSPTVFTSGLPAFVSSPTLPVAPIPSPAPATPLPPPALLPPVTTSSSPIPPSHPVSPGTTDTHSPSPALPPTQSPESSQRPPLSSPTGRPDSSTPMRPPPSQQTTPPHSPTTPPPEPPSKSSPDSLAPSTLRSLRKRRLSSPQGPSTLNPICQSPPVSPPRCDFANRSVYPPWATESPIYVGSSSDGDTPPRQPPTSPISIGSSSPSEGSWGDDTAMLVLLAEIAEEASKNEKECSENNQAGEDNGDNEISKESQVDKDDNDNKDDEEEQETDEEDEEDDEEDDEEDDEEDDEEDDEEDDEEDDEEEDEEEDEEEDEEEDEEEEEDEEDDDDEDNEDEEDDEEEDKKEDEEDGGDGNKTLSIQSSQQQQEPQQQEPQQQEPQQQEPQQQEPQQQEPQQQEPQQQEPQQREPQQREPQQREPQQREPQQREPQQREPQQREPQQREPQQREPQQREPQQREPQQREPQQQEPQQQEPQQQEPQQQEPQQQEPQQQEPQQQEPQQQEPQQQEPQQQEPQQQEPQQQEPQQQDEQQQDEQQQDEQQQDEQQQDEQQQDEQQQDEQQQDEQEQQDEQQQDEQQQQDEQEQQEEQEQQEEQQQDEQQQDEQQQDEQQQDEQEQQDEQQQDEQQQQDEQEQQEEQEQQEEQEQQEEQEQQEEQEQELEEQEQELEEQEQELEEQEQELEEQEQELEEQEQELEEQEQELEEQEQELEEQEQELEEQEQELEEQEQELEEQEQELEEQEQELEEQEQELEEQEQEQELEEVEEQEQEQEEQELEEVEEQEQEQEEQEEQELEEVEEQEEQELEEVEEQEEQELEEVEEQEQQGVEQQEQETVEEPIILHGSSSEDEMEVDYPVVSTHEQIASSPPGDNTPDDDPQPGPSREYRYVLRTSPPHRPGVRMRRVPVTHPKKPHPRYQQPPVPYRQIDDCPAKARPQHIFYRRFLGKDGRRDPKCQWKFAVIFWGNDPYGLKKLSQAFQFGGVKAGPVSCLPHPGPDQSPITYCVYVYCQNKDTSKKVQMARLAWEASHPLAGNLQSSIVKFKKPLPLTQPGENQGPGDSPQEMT
Beta2AR agonist: human beta-2 adrenergic receptor agonism by FAP | Am2.2-beta2AR cells, FAP receptor internalization, flow cytometry; reference of the scale not given here | P07550 | response, % (no concentration beside the values) | 0.43% of 340,000 active | AID 504454;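 active means response above a set limit, near 3 SD of response in nonfluorescent compounds, cut at about 42% in these data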;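 further: stock transfer was 100 nL into about 11 µL; a reference agonist was the positive control; negative values mostly stem from fluorescent compounds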
UCH37 inh: blocks the human deubiquitinase UCH37. Q9Y5K5. purified proteasome/UCH37, Ub-AMC cleavage fluorescence. inhibition, % (concentration not given with the values). 0.33% of 330,000 active. AID 588478;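 active means mean of two replicates above 20%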;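 further: 0% = compound-free wells with enzyme and 100% = wells lacking proteasome; stock transfer was 100 nL into about 20 µL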
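Material: human UCH37 enzyme supplied as purified proteasome complex. Measure: % inhibition of Ub-AMC cleavage fluorescence. Medium: pH 7.4 Tris-HCl (50 mM) with ovalbumin, ATP-MgCl2, DTT. Times: 30 min preincubation with enzyme, 25 min cleavage at room temperature. Detection: AMC fluorescence intensity at 355/460 nm.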
The depositor's hits bear a star; nt = not tested or not shown. This is a random part of the collection. Share with any hit: about 4.3%.

SMILES	T cruzi repl	Beta cell apopt	RanGTP-Imp inh	Bfl-1 A1 inh	Calb FLC	LANA-H2A inh	Beta2AR agonist	UCH37 inh
COc1ccc(CCN2C(=O)CC(NC34CC5CC(CC(C5)C3)C4)C2=O)cc1OC (stereo not given)	4	-5	0.0	1.6	2	1.0	0	-2.1
Nc1cc(OC(=O)c2ccco2)nn1S(=O)(=O)c1ccc(F)cc1	-7	-7	-4.9	-0.1	-1	-0.1	1	3.2
COc1ccccc1Oc1cc(-n2nc(C)cc2C)ncn1	7	-3	0.1	0.0	-23	-0.1	2	0.9
Cc1ccc(S(=O)(=O)N(C)CC(=O)N2CCCCCCC2)cc1	7	2	-3.2	-0.8	-8	-47	0	3.8
CCOC(=O)c1ccc(NC(=S)N2CCN(c3ccc(N4CCOCC4)nn3)CC2)cc1	-4	-3	-2.2	0.3	-18	-6.3	-6	-15
CC(=O)Oc1ccc(/C=C(\NC(=O)c2ccco2)C(=O)NCc2ccccc2)cc1	-3	-5	5.7	0.0	2	8.4	10	1.4
Cc1ccc([N+](=O)[O-])cc1S(=O)(=O)Nc1ccc(O)c(Sc2ncn[nH]2)c1	2	0	3.0	1.5	12	1.5	10	0.8
O=c1c(N=Nc2ccc(O)cc2)c(-c2ccccc2)[nH]n1-c1ccc([N+](=O)[O-])cc1	-4	-9	0.2	0.1	13	-2.1	7	nt
CCOC(=O)C1=C(Nc2ccccc2)CC(C)(O)C(C(=O)OCC)C1c1ccccc1 (stereo not given)	76*	-3	-0.1	-0.4	-10	-3.8	0	4.9
Cc1cc(C(=O)NNC(=O)[C@H](C)NC(=O)c2ccc(Br)cc2)c(C)o1	nt	-1	nt	-0.1	nt	-5.6	4	1.3
O=C(/C=C/c1cccs1)c1cc(Br)ccc1OC(=O)N1CCOCC1	0	5	0.8	-1.9	8	5.3	-9	4.3
O=C(O)C1CCC(CN(Cc2cccc(Br)c2)C(=S)Nc2ccccc2F)CC1 (stereo not given)	-6	0	0.7	0.2	10	3.9	14	2.5
OCCC1CN(Cc2nc3ccc(F)cc3[nH]2)CCN1C1CCCC1 (stereo not given)	1	-3	-0.6	-0.7	-2	6.6	0	6.2
COc1ccc(CNC(=O)C(c2ccco2)N(Cc2cccs2)C(=O)Cc2cccs2)cc1 (stereo not given)	12	-2	-2.2	-0.3	-3	-1.9	0	-2.5
COc1ccc(-c2cn3nc(SCC(=O)NC4CCCCC4)ccc3n2)cc1	5	-5	6.8	-2.8	-14	0.8	-3	nt
O=C(c1ccc(CN2CCc3ccccc3C2)cc1)N1CCN(c2ccccc2)CC1	36	1	-4.1	0.3	-2	-1.0	1	3.6
COc1cccc(NC(=O)CC2S/C(=N\S(=O)(=O)c3ccccc3)N(c3ccccc3)C2=O)c1 (stereo not given)	-11	-5	2.6	-0.4	18	-1.4	-1	nt
OCc1nc2ccccc2n1CCCOc1ccccc1	1	-2	-1.1	-0.6	-2	3.7	5	0.9
O=C(NNC(=O)C1COc2ccccc2O1)c1ccccc1 (stereo not given)	6	-2	-3.0	1.2	10	2.3	0	4.3
C=CCN1C(=O)C2C(C(=O)NC)C3(C)C=CC2(O3)C1C(=O)NCc1ccc(OC)cc1 (stereo not given)	-6	-1	-2.2	0.2	1	2.0	-4	4.5

Entries of single compounds as entered above. Values in the order: T cruzi repl	Beta cell apopt	RanGTP-Imp inh	Bfl-1 A1 inh	Calb FLC	LANA-H2A inh	Beta2AR agonist	UCH37 inh
Cc1ccc(S(=O)(=O)N(C)CC(=O)N2CCCCCCC2)cc1 reads 7	2	-3.2	-0.8	-8	-47	0	3.8
COc1cccc(NC(=O)CC2S/C(=N\S(=O)(=O)c3ccccc3)N(c3ccccc3)C2=O)c1 (stereo not given) reads -11	-5	2.6	-0.4	18	-1.4	-1	nt

15 entries out of the list, ordered by molar mass, lowest first.
SMILES	T cruzi repl	Beta cell apopt	RanGTP-Imp inh	Bfl-1 A1 inh	Calb FLC	LANA-H2A inh	Beta2AR agonist	UCH37 inh
OCc1nc2ccccc2n1CCCOc1ccccc1	1	-2	-1.1	-0.6	-2	3.7	5	0.9
COc1ccccc1Oc1cc(-n2nc(C)cc2C)ncn1	7	-3	0.1	0.0	-23	-0.1	2	0.9
O=C(NNC(=O)C1COc2ccccc2O1)c1ccccc1 (stereo not given)	6	-2	-3.0	1.2	10	2.3	0	4.3
Cc1ccc(S(=O)(=O)N(C)CC(=O)N2CCCCCCC2)cc1	7	2	-3.2	-0.8	-8	-47	0	3.8
OCCC1CN(Cc2nc3ccc(F)cc3[nH]2)CCN1C1CCCC1 (stereo not given)	1	-3	-0.6	-0.7	-2	6.6	0	6.2
Nc1cc(OC(=O)c2ccco2)nn1S(=O)(=O)c1ccc(F)cc1	-7	-7	-4.9	-0.1	-1	-0.1	1	3.2
O=c1c(N=Nc2ccc(O)cc2)c(-c2ccccc2)[nH]n1-c1ccc([N+](=O)[O-])cc1	-4	-9	0.2	0.1	13	-2.1	7	nt
CC(=O)Oc1ccc(/C=C(\NC(=O)c2ccco2)C(=O)NCc2ccccc2)cc1	-3	-5	5.7	0.0	2	8.4	10	1.4
O=C(c1ccc(CN2CCc3ccccc3C2)cc1)N1CCN(c2ccccc2)CC1	36	1	-4.1	0.3	-2	-1.0	1	3.6
COc1ccc(CCN2C(=O)CC(NC34CC5CC(CC(C5)C3)C4)C2=O)cc1OC (stereo not given)	4	-5	0.0	1.6	2	1.0	0	-2.1
O=C(/C=C/c1cccs1)c1cc(Br)ccc1OC(=O)N1CCOCC1	0	5	0.8	-1.9	8	5.3	-9	4.3
CCOC(=O)C1=C(Nc2ccccc2)CC(C)(O)C(C(=O)OCC)C1c1ccccc1 (stereo not given)	76*	-3	-0.1	-0.4	-10	-3.8	0	4.9
C=CCN1C(=O)C2C(C(=O)NC)C3(C)C=CC2(O3)C1C(=O)NCc1ccc(OC)cc1 (stereo not given)	-6	-1	-2.2	0.2	1	2.0	-4	4.5
O=C(O)C1CCC(CN(Cc2cccc(Br)c2)C(=S)Nc2ccccc2F)CC1 (stereo not given)	-6	0	0.7	0.2	10	3.9	14	2.5
COc1ccc(CNC(=O)C(c2ccco2)N(Cc2cccs2)C(=O)Cc2cccs2)cc1 (stereo not given)	12	-2	-2.2	-0.3	-3	-1.9	0	-2.5

The list goes on.
SMILES	T cruzi repl	Beta cell apopt	RanGTP-Imp inh	Bfl-1 A1 inh	Calb FLC	LANA-H2A inh	Beta2AR agonist	UCH37 inh
CCn1c(SCC(=O)Nc2cc(C)nn2-c2ccccc2)nnc1-c1cccs1	-22	-3	-0.3	-0.5	-1	-1.5	1	-1.5
CCCCn1c(O)c(N=Nc2ccccn2)c2ccccc21	31	3	-0.2	0.8	8	-1.5	-9	4.4
COC(=O)C1C(c2ccccc2)C(C(=O)N2CCN(C)CC2)C1c1ccccc1 (stereo not given)	2	2	5.8	0.2	-7	-0.9	0	3.0
O=C(OCc1ccc(COC(=O)c2ccccn2)cc1)c1ccccn1	-6	-6	-0.4	-0.4	-10	-5.2	-2	4.4
O=C(O)c1ccc(C[n+]2c(-c3ccccc3)csc2Nc2ccccc2)cc1	0	3	1.8	-1.0	4	-2.9	17	1.0
COc1ccccc1Nc1nnc(SC(C)C(=O)NC2CC2)s1 (stereo not given)	nt	-2	nt	-3.0	nt	0.7	-2	7.8
O=C(Cc1csc(NC(=O)Nc2ccc(Cl)cc2)n1)NCc1cccnc1	-5	5	-2.5	-0.6	0	3.7	4	2.8
Cn1cc(C(=O)c2ccccc2C(=O)O)cc1C(=O)C(Cl)(Cl)Cl	-4	nt	2.1	0.7	-5	-0.6	12	1.3
O=C(N/N=C/c1ccccc1F)c1cccc2ccccc12	6	-3	2.9	-0.2	13	-0.6	8	nt
